# TSHR ag: activates the human thyroid stimulating hormone receptor | P16473 | HEK293-CNG-TSHR cells (CNG channel as cAMP sensor), membrane potential dye, cAMP | Potency, µM (titrated, usually from 57.1 µM), without a hit: top-dose activation, usual class: activators | hit rate 0.48% among 73,000; active = well fitted activation curve of enough size with the parental cells flat; inconclusive = any curve in the parental cells; inactive = parental cells flat and receptor cells flat or falling; further: potency means the concentration at half of the fitted maximal effect; % of control where 0% means no effect; weak receptor curves with flat parental cells got no call and are not listed
# Target sequence (P16473 whole entry, looked up): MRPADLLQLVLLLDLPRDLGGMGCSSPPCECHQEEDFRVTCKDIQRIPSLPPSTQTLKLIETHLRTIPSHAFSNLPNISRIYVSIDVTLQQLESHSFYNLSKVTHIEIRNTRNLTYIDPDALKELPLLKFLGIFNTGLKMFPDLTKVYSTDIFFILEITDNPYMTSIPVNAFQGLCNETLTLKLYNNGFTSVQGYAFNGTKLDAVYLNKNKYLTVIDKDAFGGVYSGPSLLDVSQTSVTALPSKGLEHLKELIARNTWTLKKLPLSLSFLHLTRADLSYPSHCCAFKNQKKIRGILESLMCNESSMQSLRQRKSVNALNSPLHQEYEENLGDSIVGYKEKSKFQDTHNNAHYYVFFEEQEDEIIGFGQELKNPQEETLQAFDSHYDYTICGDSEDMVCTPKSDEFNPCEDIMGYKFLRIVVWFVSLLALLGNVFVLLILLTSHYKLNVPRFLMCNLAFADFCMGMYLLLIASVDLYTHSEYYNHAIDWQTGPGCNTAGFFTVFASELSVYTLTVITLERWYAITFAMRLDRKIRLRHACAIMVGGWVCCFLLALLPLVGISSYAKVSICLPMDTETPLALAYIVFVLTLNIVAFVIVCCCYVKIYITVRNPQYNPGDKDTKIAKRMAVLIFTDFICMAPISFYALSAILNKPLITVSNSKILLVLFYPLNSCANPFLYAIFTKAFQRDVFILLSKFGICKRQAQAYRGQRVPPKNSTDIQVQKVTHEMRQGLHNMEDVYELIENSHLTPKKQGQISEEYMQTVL
#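 HEK 293 cells stably expressing TSHR and a modified CNG channel, with CNG-only parental cells as counterscreen, were preloaded 60 min at room temperature with membrane potential dye containing 100 uM RO 20-1724. Compound exposure was 30 min, and depolarization was read as fluorescence at 590 nm.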
# Resorufin fluor: compounds fluorescent in resorufin spectral region; hit rate 0.04% among 59,000; max dye-equivalent concentration, M; AID 588; Compound fluorescence, resorufin region 547/598 nm, buffer; hits give high values; active = above 10 nM dye equivalent; inconclusive = 1 to 10 nM; inactive = 1 nM or less; a few of its hits are not listed in these tables; further: highest value over a series up to 38 µM
#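 Compounds in 100 mM Tris buffer, pH 8.0, incubated 15 min at room temperature, then read with 547 nm excitation and 598 nm emission filters. Fluorescence was converted to dye-equivalent concentration using an on-plate six-point resorufin standard curve.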
# A647 fluor: compound fluoresces in the A647 spectral region | max dye-equivalent concentration, M | Compound fluorescence, A647 channel (570/671 nm), Tris buffer | 59,000 tested, under 10 active; active means above 1 µM dye equivalent; inconclusive means 0.1 to 1 µM; inactive means 0.1 µM or less;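 further: values scaled relative to a standard on each plate; highest value over a series up to 38 µM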
#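 Spectral profiling of library compounds in pH 8.0 Tris: 15 min room-temperature incubation, single ex/em pair (570/671 nm), response normalized to Alexa 647 equivalents.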
# AID923: qHTS Assay for Allosteric/Competitive Inhibitors of Caspase-1: Spectroscopic Profiling in AFC Spectral Region; Potency, µM (doses to about 57.5 µM), for the others: at the top dose fluorescence increase, hits mostly activators; AID 923, 2007; hit rate 1.1% among 75,000; compound fluorescence, AFC spectral region (405/520 nm); almost no hit is shown here; active means well fitted activation curve with a large enough effect; inconclusive means small, poorly fitted or top-dose-only effect;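 further: potency means the concentration at half of the fitted maximal effect; 0% is about no effect; scaled to a free AFC standard on each plate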
#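 Compound autofluorescence profiled at 405 nm ex/520 nm em during kinetic caspase 1 run (50 nM enzyme, 5 uM Ac-WEHD-AFC, HEPES pH 7.5, 10 mM DTT). Titration up to 57 uM; baseline from regression intercept, normalized to AFC standard curve.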
# A488 fluor: A488 region autofluorescence | compound autofluorescence, A488 spectral region, dye equivalency; hits give high values | max dye equivalency, M | hit rate 0.1% among 59,000; active = above 10 nM dye equivalent; inconclusive = 1 to 10 nM; inactive = 1 nM or less; about half of its hits are not listed in these tables;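 further: highest value over a series up to 38 µM; compound alone in buffer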
#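 Compounds pin-transferred into 100 mM Tris buffer, pH 8.0, incubated 15 min at room temperature, then imaged with 480 nm excitation/540 nm emission filters. Fluorescence converted to Alexa 488 dye-equivalent concentration via an on-plate six-point A488 standard curve.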
# * marks the source's active call; other numbers are inactive results; i = inactive; ? = inconclusive; . = no result given; & = joins results of further samples; [ ] = remark or other dose.
SMILES,TSHR ag,Resorufin fluor,A647 fluor,AID923,A488 fluor
CCCn1c(-c2ccc(F)cc2)nc2c(NCCCCN(CC)CC)nc(C)nc21,?,.,.,-1.9%,.
O=C(O)C(=Cc1ccnc2ccccc12)C(=O)O,-0.6%[11.4 µM],i,1.74e-08,2.0%[11.5 µM],i
CCOCC(=O)Nc1nnc(C)s1,-0.1%,i,1e-09,-0.3%,i
COc1ccc(OC)c(-c2cc(C(=O)Nc3c(C)nn(Cc4ccccc4Cl)c3C)no2)c1,18.3%,i,1e-09,-4.1%,i
Cn1c(=O)c2c(SC3CCCC3)nc(C3CC3)nc2n(C)c1=O,7.0%,.,.,-1.3%,.
Cc1ccc(CC(=O)N2CCC(c3nc4c(nnn4Cc4ccccc4)c(=O)[nH]3)CC2)cc1,0.6%,.,.,-2.7%,.
CC(C)c1cc(C(N)=O)c(NC(=O)C2CCC2)s1,-2.8%,i,1.66e-08,-0.8%,i
CCOc1ccc(C2/C(=C(\O)c3ccc(OC)c(OC)c3)C(=O)C(=O)N2c2cc(C)on2)cc1OC (configuration not stated),?,i,6.3e-09,-1.3%,i
COc1ncc2nc(-c3cn(C)c4ccccc34)c(=O)n(C[C@H]3CCCO3)c2n1,4.9%,i,5.2e-09,10.1%,i
CC(=O)[C@H]1[C@H]2[C@H](C(=O)[C@@H]3OC[C@H]2O3)[C@@H]2c3ccccc3C=CN12,-4.8%,i,1.64e-08,.,i
O=C(c1ccco1)N1CCN(c2ncccn2)CC1,-0.6%,.,.,-0.6%,.
O=C(Nc1cccc(F)c1)N1CCCC2(CCN(C(=O)c3cnccn3)CC2)C1,?,i,2.23e-08,-0.8%,i
COCCNC(=O)c1ccc2c(c1)nc(C)n2-c1cccc(F)c1,3.4%[11.4 µM],i,3.65e-08,2.5%,i
Cn1cc(CC(=O)NCCCN2CCCC2=O)c2ccccc21,2.7%,.,.,0.4%,.
CCCn1cc(S(=O)(=O)CC(=O)Nc2ccc(OC)cc2OC)c2ccccc21,4.6%[11.4 µM],i,1e-09,-0.6%,i
Cc1cc(N2CCCC(C(=O)Nc3ccc4c(c3)CCC4)C2)n2ncnc2n1 (configuration not stated),4.3%,i,1e-09,-1.0%,i
CC1CCN(C(=O)CSc2nnc(-c3cccnc3)n2C2CCCCC2)CC1,-19.3%,i,4.48e-08,1.9%,i
CCCCCC1CCC(C(=O)O)CC1 (configuration not stated),9.3%,i,4.4e-09,-0.2%,i
NS(=O)(=O)c1ccc(N=Nc2c[nH]c(=O)c(O)c2)cc1,-5.1%[11.4 µM],i,1.4e-09,1.4%[11.5 µM],i
CCOC(=O)c1ccccc1NC(=O)CSc1nc2ccccc2o1,?,i,1e-09,0.9%,i
COc1cc(OC)nc(NC(=O)CSc2nc3ccccc3[nH]2)n1,-2.6%,i,2.48e-08,0.4%,i
Nc1ccc(N2CCCCCC2)cc1,-24.8%,i,3.42e-08,6.3%,i
CCOC(=O)c1ccccc1NC(=O)Cn1cnc2c(cnn2-c2ccc(F)cc2)c1=O,?,i,1e-09,0.7%,i
COc1ccccc1NC(=O)CN1CCN(CC(=O)Nc2ccc3c(c2)OCCO3)CC1,3.2%,i,3.1e-09,-0.5%,i
CC1(C)Cc2nc3sc4c(=O)n(CC(=O)NCc5ccco5)cnc4c3cc2CO1,9.8%,i,2e-09,1.3%,i
CCN(c1cccc(C)c1)S(=O)(=O)c1ccc2[nH]c(=O)c(=O)[nH]c2c1,-0.6%,i,4.2e-09,0.4%,i
Cc1ccc(S(=O)(=O)NC2=NCCC2)cc1,2.5%,i,1.09e-08,-0.4%,i
CCc1c(C#N)c(SCc2c(C)noc2C)nc2c1C(=O)CC(C)(C)C2,?,i,2.29e-08,1.6%,i
COC(=O)N1CCC2(CC1)CCN(c1ncccn1)CC2,-2.3%,i,4.3e-09,2.2%,i
Cc1ccc(-c2nnn(CC(=O)N(CC(=O)NC3CCCCC3)c3cnc4ccccc4c3)n2)o1,15.0%,i,2.04e-08,6.4%,i

# Gathered by group: the entries above with a furan ring, fused or not
SMILES,TSHR ag,Resorufin fluor,A647 fluor,AID923,A488 fluor
O=C(c1ccco1)N1CCN(c2ncccn2)CC1,-0.6%,.,.,-0.6%,.
CC1(C)Cc2nc3sc4c(=O)n(CC(=O)NCc5ccco5)cnc4c3cc2CO1,9.8%,i,2e-09,1.3%,i
Cc1ccc(-c2nnn(CC(=O)N(CC(=O)NC3CCCCC3)c3cnc4ccccc4c3)n2)o1,15.0%,i,2.04e-08,6.4%,i

# (cont.)
SMILES,TSHR ag,Resorufin fluor,A647 fluor,AID923,A488 fluor
CC(C)Sc1nc2c(c(=O)n(C)c(=O)n2C)n1C,-3.5%,i,3.9e-08,-1.8%,i
CCOC(=O)N1CCN(S(=O)(=O)c2cccc3cccnc23)CC1,-0.7%,i,5.75e-08,-0.1%,i
Cc1ccc2c(c1)c1ncn(CCC3=CCCCC3)c(=O)c1n2C,23.2%,i,1e-09,0.4%,i
CC(C)C(c1nnnn1Cc1ccco1)N1CCN(c2nc3ccccc3s2)CC1 (configuration not stated),.,i,5.76e-08,-1.2%,i
CN1CCn2c1nc(N1CCOCC1)nc2=O,-0.6%,i,4.3e-09,-2.4%,i
CCN1CCCC(OC(=O)Nc2ccccc2)C1 (configuration not stated),3.7%,i,4.9e-09,-3.2%,i
C=CCSc1nnc2c(n1)OC(c1cccnc1)N(C(C)=O)c1ccccc1-2 (configuration not stated),-2.9%,i,1.63e-08,12.8%,i
CCOC(=O)CSC1=Nc2ccccc2C2=NC(CC(=O)NCc3ccc(OC)cc3)C(=O)N12 (configuration not stated),.,i,1e-09,-1.2%,i
CCOC(=O)C(NC(=O)OC(C)C)(Nc1nccs1)C(F)(F)F (configuration not stated),7.9%,i,1.3e-08,0.1%,i
O=C(COC(=O)Cn1cnc2ccccc21)Nc1ccc2c(c1)OCCO2,-0.5%,i,8e-09,-1.7%,i
Cc1sc(-n2c(C)ccc2C)c(C#N)c1C,.,i,1e-09,.,i
CCn1c(CNC(=O)c2ccc(OC)c(OC)c2)nnc1SCC(=O)c1ccc(OC)cc1,-2.8%,i,2.5e-09,-0.5%,i
Cc1ccc(S(=O)(=O)N(C)CC(=O)N2CCOCC2)cc1,1.7%,i,1e-09,-0.2%,i
O=c1[nH]c2sc3c(c2c(=O)n1Cc1ccccc1)CCC3,.,i,7.7e-08,.,i
O=C(c1cc2c(s1)CCC2)N1C(=O)c2ccccc2S1(=O)=O,0.6%,i,1e-09,-1.1%,i

# Sorted by molar mass (rising): some entries from above
SMILES,TSHR ag,Resorufin fluor,A647 fluor,AID923,A488 fluor
CN1CCn2c1nc(N1CCOCC1)nc2=O,-0.6%,i,4.3e-09,-2.4%,i
CCN1CCCC(OC(=O)Nc2ccccc2)C1 (configuration not stated),3.7%,i,4.9e-09,-3.2%,i
O=c1[nH]c2sc3c(c2c(=O)n1Cc1ccccc1)CCC3,.,i,7.7e-08,.,i
Cc1ccc2c(c1)c1ncn(CCC3=CCCCC3)c(=O)c1n2C,23.2%,i,1e-09,0.4%,i
CC(C)C(c1nnnn1Cc1ccco1)N1CCN(c2nc3ccccc3s2)CC1 (configuration not stated),.,i,5.76e-08,-1.2%,i

# (cont.)
SMILES,TSHR ag,Resorufin fluor,A647 fluor,AID923,A488 fluor
O=C(c1ccco1)N1CCN(CC(O)COc2ccc3oc4ccccc4c3c2)CC1 (configuration not stated),15.7%,i,1.1e-08,-0.3%,i
CCOC(=O)c1coc(CNC(=O)c2c(C)oc3c2CCCC3)c1,?,i,4.6e-09,-2.9%,i
CCOC(=O)C1CCCN(C(=O)c2cncc(Br)c2)C1 (configuration not stated),0.1%,i,3.9e-08,0.3%,i
O=S(=O)(c1ccccc1)N1CCC[C@@]2(CCN(c3cccc(-c4ccccc4)c3)C2)C1,10.5%,i,1e-09,-0.3%,i
C[C@@]12CC[C@@H]3c4ccc(O)cc4CC[C@H]3[C@H]1CC[C@H]2O,?,i,1.3e-09&3.9e-09,2.1%[25.7 µM],i
CC1=C(C#N)C(c2ccc3ncccc3c2)C(C#N)=C(C)N1,12.5%,i,2.12e-08,0.0%,i
COc1ccc(C)cc1NC(=O)NCCC1=CCCCC1,20.1%,i,2.32e-08,-1.0%,i
Cc1cc(C)nc(/N=C2\NC(=O)CC3C(=O)NCCN23)n1 (configuration not stated),-0.5%,i,1.73e-08,-0.6%,i
O=C(NCc1ccccn1)C1CCCN(S(=O)(=O)c2ccccc2)C1 (configuration not stated),39.4%,i,5.8e-08,-1.6%,i
CCOC(=O)CCCNC(=O)CN1C(=O)NC2(CCCCCC2)C1=O,?,i,5e-09,-1.1%,i
CCC1C(=O)N=C(SCC(=O)Nc2cccc3ccccc23)NC1=O (configuration not stated),-0.7%,i,1e-09,-0.2%,i
CC(=O)c1ccc(NC(=O)Cn2nc(C)cc2C)cc1,4.6%,i,9.9e-09,-1.2%,i
Cc1[nH]c2ccccc2c1-c1nc2ccccc2[nH]1,9.0%[11.4 µM],i,1e-09,-1.0%,i
C1CCc2nnc(-c3nnc4n3CCCCC4)n2CC1,-0.8%,.,.,0.6%,.
CCOC(=O)C1=C(N)n2c(s/c(=C\c3cccs3)c2=O)=C(C(=O)OCC)C1c1cccs1 (configuration not stated),-1.8%,i,1.97e-08,2.3%,i
Fc1ccc(Nc2ncncc2-c2ccoc2)cc1,4.5%,i,8.8e-09,1.9%,i
CCOc1nc(C)ccc1-c1noc(-c2ccco2)n1,8.2%,i,1.75e-08,3.3%,i
Cn1c(N)c(C(=O)COC(=O)CCCc2c[nH]c3ccccc23)c(=O)n(C)c1=O,6.8%,i,1.82e-08,0.2%,i
Nc1ncnc2c1ncn2CCNCCc1ccccc1,2.3%,i,7.01e-08,-0.3%,i
CN1CC2(Cc3c1ccc1ccccc31)C(=O)OC(C)(C)OC2=O,12.7%,i,2.69e-08,-1.5%,i
Cc1cc(NCc2ccccc2)nc(-c2ccccc2O)n1,11.2%,.,.,11.9%,.
O=C(CSC1=NCCS1)N1CCCCCC1,7.2%,i,1e-09,-0.4%,i
COCCCNC(=O)CN(c1cccc(Cl)c1)S(C)(=O)=O,5.8%[11.4 µM],.,.,6.6%,.
CN1C=CC(=C2C(=O)c3ccccc3C2=O)C=C1,0.4%,.,.,-0.6%,.
CCN(CC)S(=O)(=O)c1cccc(-c2nnc(SC(C)C(=O)NCCC3=CCCCC3)o2)c1 (configuration not stated),?,i,3.76e-08,-1.0%,i
COc1cccc(-c2noc(C3CCCN(C(=O)Cc4ccccc4)C3)n2)c1 (configuration not stated),?,i,1e-09,0.0%,i
O=C(NCC1COc2ccccc2O1)c1ccc(NC(=O)C2CCCO2)cc1 (configuration not stated),1.6%[11.4 µM],i,8e-09,-0.2%,i
COc1ccc(C2(C(=O)NCC3CCCO3)CCOCC2)cc1 (configuration not stated),7.6%,i,1e-09,1.2%,i
CCCCCCC(=O)NCC(=O)OCC(=O)c1ccccc1,6.1%,i,1.22e-08,-1.0%,i
CC(=O)N1c2c(cc(Br)cc2S(=O)(=O)NCC2COc3ccccc3O2)CC1C (configuration not stated),?,i,1.52e-08,2.1%,i
CCNC(=O)COn1c(SCC(=O)NCC)nc2ccccc2c1=O,.,i,3.49e-08,.,i
CC(C)c1nc(-c2c(N)n(C)c(=O)n(C)c2=O)sc1C(=O)C(C)(C)C,?,i,4.9e-09,0.8%,i
CS(=O)(=O)Nc1cccc(-c2nccc(-n3ccnc3)n2)c1,14.0%,i,3.81e-08,-2.2%,i
CCc1nc(SCC(=O)NCc2ccco2)c2c(=O)n(C)c(=O)n(C)c2n1,4.6%,.,.,-10.4%,.
COc1ccc(OC)c(S(=O)(=O)NCc2cn3c(C)csc3n2)c1,2.5%,.,.,-2.1%,.
COc1ncc2nc(-c3ccc(Cl)cc3)c(=O)n(CCc3ccccc3)c2n1,-3.3%,i,1e-09,4.4%,i

# The list is partial (hit frequency here may not be typical).
